High-throughput results deposited in PubChem by National Center for Advancing Translational Sciences (NCATS).
VDR inh = Inhibitors of the vitamin D receptor (VDR): qHTS. Vitamin D3 receptor (Homo sapiens), P11473. VDR-SRC2-3 peptide fluorescence polarization, 2 h. Potency, µM, for the others: max response, negative = inhibition, usual class: inhibitors. 0.93% of 400,000 active. AID 504847, 2011; active = well fitted inhibition curve with a large enough effect; inconclusive = small, poorly fitted or top-dose-only effect, or another doubt; inactive = no such curve, though single readings can be large or run the other way; note: series mostly up to about 120 µM
Target sequence (P11473 whole entry, looked up): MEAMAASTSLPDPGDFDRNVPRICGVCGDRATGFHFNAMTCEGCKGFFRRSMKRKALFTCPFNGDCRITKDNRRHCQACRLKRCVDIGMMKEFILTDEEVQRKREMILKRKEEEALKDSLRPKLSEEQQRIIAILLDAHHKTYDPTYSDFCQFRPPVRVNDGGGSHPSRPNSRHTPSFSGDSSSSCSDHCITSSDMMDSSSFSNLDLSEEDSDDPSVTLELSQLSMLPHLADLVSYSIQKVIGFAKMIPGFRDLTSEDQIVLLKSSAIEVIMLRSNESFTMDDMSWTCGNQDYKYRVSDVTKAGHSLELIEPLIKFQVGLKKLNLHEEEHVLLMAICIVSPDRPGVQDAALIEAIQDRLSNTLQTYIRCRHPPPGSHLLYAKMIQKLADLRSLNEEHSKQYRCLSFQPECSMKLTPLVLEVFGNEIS
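VDR–SRC2-3 interaction, FP format. Cmpds 23 nl via pintool, brief spin, 2 h ambient incubation.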
The depositor's hits bear a star; ? = inconclusive; & = joins results of further samples. % is set by controls: 0 for no effect and ±100 for the full control effect; potency is the fitted concentration of half-maximal effect.

compound,VDR inh
COc1ccc(CCNC(=O)CCCCCN2C(=O)[C@@H]3Cc4ccccc4CN3C2=O)cc1OC,-22%
Cc1ccc(Nc2nc(N)nc(CN3CCN(C)CC3)n2)cc1,1%
Cc1nn(CC(=O)Nc2ccc3c(c2)OCO3)c(C)c1[N+](=O)[O-],-11%
O=C(O)CCc1nnc2n(Cc3ccc(F)cc3)c(=O)c3ccccc3n12,-8%
CC(NC(=O)c1cc2ccccn2n1)c1ccccc1 (stereo not given),8%
Cc1nc(N2CCN(c3ccccn3)CC2)c2c(C)c(C(=O)Nc3ccc(F)cc3F)sc2n1,2%
CN(C)CCCC1Sc2ccccc2Sc2ccccc21 (stereo not given),4%
CC1CCCC(C)N1C(=O)COc1ccc(F)cc1 (stereo not given),-10%
COc1ccc(CNC[C@@H](CCCCN(C)Cc2ccc(OC)cc2)N2C[C@H](c3ccccc3)N(CCc3ccc(Cl)c(Cl)c3)C(=O)C2=O)cc1,-9%
COc1ccc([N+](=O)[O-])c(OC)c1C(=O)NC(=O)Nc1c(F)c(F)c(F)c(F)c1F,3%
COCCN(C(=O)CSc1n[nH]c(-c2ccc(OC)cc2)n1)c1c(N)n(Cc2ccccc2)c(=O)[nH]c1=O,2%
CCOc1cc(OCC)cc(C(=O)Nc2cccc(C(C)=O)c2)c1,-2%
CCOc1ccccc1NC(=O)COC(=O)c1c(CC)noc1C,-8%
CC(=O)Nc1ccccc1NC(=O)C/C(C)=N/NC(=O)C(=O)N1CCCCC1,-22%
COc1ccc(-c2csc(NS(=O)(=O)c3ccc([N+](=O)[O-])cc3)n2)cc1,-24%
O=C1CCCCN1CCc1c[nH]c2ccccc12,1%
O=C(OCC(F)(F)C(F)F)c1ccccc1C(=O)Oc1ccc(F)cc1F,15%
COc1ccccc1N1CCN(S(=O)(=O)c2c(C)sc3ncn(CC(=O)Nc4ccc(C)cc4Br)c(=O)c23)CC1,-1%
CSCCC(NC(=O)c1ccccc1Br)C(=O)NCC1CCCCC1 (stereo not given),4%
COc1ccc(-c2cc(C(F)(F)F)nc(N3CCOCC3)n2)cc1OC,-13%
CCc1nnc(NS(=O)(=O)c2ccc(Nc3ccc4nonc4c3[N+](=O)[O-])cc2)s1,-5%
Cc1c(Cl)cnc(NC(=O)COC(=O)/C=C/c2ccco2)c1Cl,-22%
O=C(CC(CC(=O)c1ccccc1)c1ccncc1)c1ccccc1,5%
COc1cc(C(=O)N2CCN(S(=O)(=O)c3ccc(C)cc3)CC2)ccc1OCC(=O)N1CCOCC1,-1%
CCOC(=O)c1cc(-c2ccccc2)nn1CCC#N,13%
CCC(C)c1ccccc1OCCn1c(CCNC(=O)C2CCCCC2)nc2ccccc21 (stereo not given),-11%
COC(=O)Cn1c2ccc(Cl)cc2c2nc(C)sc21,-10%
O=Cc1cn(CC(=O)N2CCCCCC2)c2ccccc12,3%
COc1ccccc1CNC(=O)c1ccc(-c2ccccc2C(F)(F)F)o1,-16%
O=C(NCCc1ccccc1)c1ccc2c(c1)N(Cc1ccccc1)C(=O)CS2=O (stereo not given),-12%
COc1ccc(NC(=O)CSc2ccc(NC(C)=O)cc2)cc1S(=O)(=O)N1CCOCC1,-11%
Cc1nn(CC(=O)NCc2ccc(F)cc2)c2ccccc12,2%
O=S(=O)(c1cccc(C(F)(F)F)c1)n1c(/C=C/c2ccccc2)nc2ccccc21,-7%
CC1(C)CC(=O)c2cc(C(=O)Nn3cnnc3)c(=O)n(-c3ccccc3)c2C1,4%
COc1cccc(/C=N/n2nnnc2N)c1O,-2%
CC(=O)Nc1nc(SCC(=O)Nc2nnc(C)s2)[nH]c(=O)c1NC(=O)c1cccs1,-10%
COc1ccc(CNS(=O)(=O)c2ccc(F)c(C(=O)Nc3c(C)cc(C)cc3C)c2)cc1,11%
CCn1cc(Br)c(-c2nc3ccccc3c(=O)n2N)n1,9%
O=c1nc(-c2ccccc2)c(-c2ccccc2)n[nH]1,11%
CC(=O)Nc1cc2ccccc2oc1=O,-4%&3%
O=C1c2ccccc2S(=O)(=O)c2cc(C(=O)N3CCC(O)CC3)ccc21,-2%
COc1ccc(-n2c(=S)[nH]c3cc(C(=O)NCc4ccccc4)ccc3c2=O)c(OC)c1,3%
CCOc1ccc(-c2nnn(CC(=O)NCc3ccc(OC)cc3)n2)cc1OCC,11%
Cc1cc(=O)[nH]c(N/N=C/c2sccc2C)n1,12%
CCc1cccc(NC(=O)Cn2c(=O)n(CC(=O)NCCc3ccccc3)c(=O)c3ccccc32)c1,-15%
O=C(NCCC1=CCCCC1)c1cc(S(=O)(=O)N2CCOCC2)ccc1F,1%
CCN(Cc1ccccc1)C(=O)Cn1c(=O)n(CCC(=O)N2CCCCC2)c(=O)c2sccc21,-5%
CN(CCCNC(=O)CCC(=O)N1CCOc2ccccc21)Cc1ccccc1,19%
CCOC(=O)c1cc2sc(C)cc2n1CCCN1C(=O)c2ccccc2C1=O,-9%
COC(=O)c1ccccc1NC(=O)COC(=O)Cc1ccc(S(=O)(=O)N2CCOCC2)s1,-2%

More compounds.
compound,VDR inh
Cc1cc(=O)oc2cc(OCC(=O)Nc3c(C)n(C)n(-c4ccccc4)c3=O)c(Cl)cc12,-12%
CCOC(=O)c1sc(SC)nc1N,-10%
COc1ccc(C2C(C(=O)c3ccccc3)=C(C)Nc3nc4ccccc4n32)c(OC)c1 (stereo not given),-19%
COc1cc(NC(=O)COc2ccc(-n3cnnn3)cc2)cc(OC)c1OC,-13%
O=C(Nc1ccccc1)Nc1nnc(SCC(=O)N2CCCCC2)s1,-4%
Cc1cccc(C)c1NC(=S)Nc1c(C)n(C)n(-c2ccccc2)c1=O,-3%
O=C(N/N=C/C1=C(N2CCOCC2)C(=C\c2ccccc2)/CC1)Nc1ccccc1,-6%
CC(C)NC(=O)CCS(=O)(=O)c1cccc2nonc12,8%
Cc1ccc(NC(=O)CSc2sc3c(O)cc(=O)[nH]c3c2C#N)cc1C,3%
CCCCN(C)CCCNC(=O)C1CCC(CNS(=O)(=O)c2c(C)cc(C)cc2C)CC1 (stereo not given),?
Cc1cc(O)c(C2=Nc3ccccc3SC(c3ccc(Cl)cc3)C2)c(=O)o1 (stereo not given),?
COc1ccc(C)cc1Nc1c2c(nc3nc(-c4cccs4)nn13)CCCC2,6%
CCOc1ccc2c3c(c(=O)oc2c1OCC)CCCC3,1%
O=C(Nc1ccc(Cl)cc1C(=O)NCc1cccnc1)c1ccc(Cl)cc1Cl,-9%
Cc1cc2oc(C(=O)Nc3ccc(S(=O)(=O)N4CCCCCC4)cc3)cc(=O)c2cc1C,-9%
CC(C)c1ccc(/C=N/NC(=O)C2CCCC2)cc1,9%
CCOC(=O)c1ccc2c(c1)N(CC(=O)N1CCCCC1)C(=O)C(C)(C)O2,16%
CC(C)Cn1c(SCC(=O)N(C)c2c(N)n(Cc3ccccc3)c(=O)[nH]c2=O)nc2ccccc21,-2%
CCOC(=O)c1c(NC(=O)C2C3CCC(O3)C2C(=O)O)sc2c1CCCC2 (stereo not given),-11%
O=C(CSc1nnc(COc2ccc(Cl)cc2)o1)NC1CC2CCC1C2 (stereo not given),?

Four compounds out of the list above, sorted by the number in VDR inh, smallest number first.
SMILES	VDR inh
Cc1cc2oc(C(=O)Nc3ccc(S(=O)(=O)N4CCCCCC4)cc3)cc(=O)c2cc1C	-9%
CC(C)Cn1c(SCC(=O)N(C)c2c(N)n(Cc3ccccc3)c(=O)[nH]c2=O)nc2ccccc21	-2%
CCOc1ccc2c3c(c(=O)oc2c1OCC)CCCC3	1%
COc1ccc(C)cc1Nc1c2c(nc3nc(-c4cccs4)nn13)CCCC2	6%

Remaining list, next part
compound,VDR inh
O=C(CSc1nnc(CN2CCOCC2)n1-c1ccccc1)N1CCc2ccccc21,6%
O=C(/C=C/c1ccc(NC(=O)c2ccccc2-c2ccccc2C(=O)O)cc1)c1ccccc1,20µM*
COC(=O)C1C/C(=N/NS(=O)(=O)c2ccc(C)cc2)CS1 (stereo not given),2%
COc1ccc(N2CCN(Cc3nc4c(c(=O)n(C)c(=O)n4C)n3CC(C)=O)CC2)cc1,8%
Cc1ccc2c(c1)C1CN(C)CCC1N2C(=O)COc1ccc(N(C)S(=O)(=O)c2cccs2)cc1 (stereo not given),21%
CCOc1ccc(N(CC(=O)NC2CCCCC2)C(=O)CCC(=O)Nc2nccs2)cc1,1%
CCc1cc(C(=O)N2CCCC(C(=O)c3cccc4ccccc34)C2)n(C)n1 (stereo not given),-7%
CCN(CC)CCOC(=O)c1ccc(NC(=O)c2nn(-c3ccc(C)cc3)c(=O)c3c2c2ccccc2n3C)cc1,-19%
Cc1cc(C)n2nc(-c3cccc(Br)c3)cc2n1,10%
COc1ccccc1N(CC(=O)NC1CCCCC1)S(=O)(=O)c1ccccc1,13%
Cc1cc(C(=O)Nc2ccc(N3CCCCC3)cc2)no1,-12%
CCOC(=O)N1CCN(C(=O)Nc2sc3nc4n(c(=O)c3c2C)CCC(C)CC4)CC1 (stereo not given),-11%
O=C(CSc1nnnn1-c1ccc(Cl)cc1)NC(=O)Nc1ccc2c(c1)OCCO2,1%
Cc1ccc(CSc2nnc(-c3ccco3)o2)cc1,-5%
CCOC(=O)CSc1[nH]c(=O)cc(C)c1C#N,-17%
Cc1cc(C)n(-c2ccc(C(=O)N3CCN(S(=O)(=O)c4cccc(Br)c4)CC3)cc2)n1,-11%
Cc1cccc(CNc2nc(-c3ccc4c(c3)OCO4)nc3ccccc23)c1,-3%
COc1ccccc1[C@H]1C(c2cccc(Cl)c2)=NN(c2ccccc2)[C@@H]1CO,-9%&-12%
CCn1c(N2CCN(S(=O)(=O)CC)CC2)nc2ccccc21,-11%
CC(=O)Oc1ccc2c(c1)CCC1C2CCC2(C)C(OC(C)=O)CCC12 (stereo not given),-24%
COc1ccc(NC(=O)CSC2=Nc3ccccc3C3=NC(CCC(=O)NCc4ccc(F)cc4)C(=O)N23)cc1Cl (stereo not given),12%
CC(C)Cn1c(N)c(C(=O)COC(=O)c2cccc(Cl)c2)c(=O)n(C)c1=O,1%
COc1ccc(/C=C2\SC(=S)N(CC3CCCO3)C2=O)cc1 (stereo not given),1%
Cc1ccc(NS(=O)(=O)c2ccc(NC(=O)c3ccc(-c4ccccc4)cc3)cc2)c(C)c1,-16%
Cc1ccc(S(=O)(=O)CCC(=O)Nc2ccc3nc(C)sc3c2)cc1,0%
COCc1c(C#N)c(NCc2cc(OC)c(OC)c(OC)c2)nc(C)c1[N+](=O)[O-],-2%
O=C(CCS(=O)(=O)c1ccccc1)OCc1ccc([N+](=O)[O-])cc1,17%
CN(C)S(=O)(=O)c1ccc(C(=O)Nc2nc(-c3cc4ccccc4o3)cs2)cc1,-3%
CN1CCN(C(=O)c2cc3c(s2)-c2ccccc2S(=O)(=O)C3)CC1,5%
Cc1cc(C)c(OCC(=O)Nc2cccc(-c3nc4ncccc4o3)c2)c(Br)c1,4%
COc1cc(NC(=O)Cn2c(C)cc3ccccc3c2=O)cc(OC)c1OC,-5%&-2%
CC1=C(C#N)c2nc(N)c(C#N)c(C)c2/C1=C\c1ccc(OCC(=O)O)c(Cl)c1,-5%
COc1cc(-c2cc[n+](C)cc2)ccc1O,-8%
Cc1cccc(NS(=O)(=O)c2c(C)[nH]c(C)c2C(=O)N2CCCC2)c1,-11%
COc1ccccc1-c1nnc(C2CCN(S(=O)(=O)c3ccc([N+](=O)[O-])cc3)CC2)o1,0%
CCOC(=O)c1c(C)[nH]c(C(=O)OCCOc2ccccc2C)c1C,5%
C/C=C/C(=O)Nc1cccc(C2=NOC3(C2)C[C@H](C(N)=O)N(C(=O)/C=C/C)C3)c1 (stereo not given in full),-4%
COc1ccc(/C=C/c2cc(C(F)(F)F)[nH]c(=O)n2)cc1OC,?
CCn1c(NCc2ccccn2)nc2ccccc21,11%
Cc1ccc(NC(=O)c2ccc(C(C)(C)C)cc2)cc1-n1cnnn1,13%

Looked up above.
VDR inh with `CCn1c(NCc2ccccn2)nc2ccccc21` : 11%
VDR inh with `CCOC(=O)c1c(C)[nH]c(C(=O)OCCOc2ccccc2C)c1C` : 5%
VDR inh with `COc1cc(-c2cc[n+](C)cc2)ccc1O` : -8%
VDR inh with `Cc1cccc(NS(=O)(=O)c2c(C)[nH]c(C)c2C(=O)N2CCCC2)c1` : -11%
VDR inh with `COc1cc(NC(=O)Cn2c(C)cc3ccccc3c2=O)cc(OC)c1OC` : -5%&-2%

Other entries follow:
compound,VDR inh
CC(C)(C)OC(=O)NCc1ccc(CNC(=O)c2nc[nH]c2C(=O)N2CCN(c3ccccc3)CC2)cc1,-14%
COc1ccc2c(C)cc(SCC(=O)NC3CCCCC3)nc2c1,-12%
Nc1c(-c2cccs2)cnc2c(-c3ccc(F)cc3)cnn12,6%
COc1ccc(Cl)cc1C(=O)NNC(=O)CN1C(=O)C2CC=CCC2C1=O (stereo not given),-1%
NC(=O)c1ccc(SCC(=O)OCC(=O)NCc2cccs2)c([N+](=O)[O-])c1,14%
CCCc1nc2oc3cc(OC)ccc3c(=O)c2c(=O)n1Cc1ccco1,8%
Oc1ccc(Cl)cc1CNc1ccccn1,19%
Cc1cc(C(=O)NNC2CC(=O)N(c3ccc4ccccc4c3)C2=O)c(C)o1 (stereo not given),-9%
CCOC(=O)c1c(CN(CC)CC)oc2ccc(OC)cc12,-2%
COc1ccc2cc3c(N)nn(C(=O)c4ccc(OC)c(OC)c4)c3nc2c1,2%
Cc1ccc(C)c2nc3sc(C(=O)N4CCCc5ccccc54)c(N)c3cc12,9%
Cc1ccc(C(=O)OCC(=O)NCc2cccc(Cl)c2)cc1S(=O)(=O)N1CCCCC1,-7%

The list is partial; the hit share may differ from the screen's.
